HCMV NEC inh: inhibitors of HCMV UL50-UL53 interaction, biochemical, HTRF; normalized percent inhibition; inhibition, % (concentration not given with the values); hit rate 0.15% among 190,000; AID 1918969, 2023;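 active = both replicates at 50% or more, plus weaker picks with an unusually low signal ratio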;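 note: stock transfer was 100 nL into about 20 µL; 0% = negative control wells and 100% = wells with untagged competitor protein; inactives centre near -12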
Sa growth inh: S. aureus growth inhibition at 42 and 30 °C, primary screen, LtaS inhibitor project, RN4220, two temperatures | OD600, 20 h, 42 °C; stronger effect = lower value | relative growth, % (no concentration beside the values) | hit rate 0.53% among 170,000;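 active = growth at 42 °C up to 50% and 20 or more points under that at 30 °C, or under 10% at both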;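 note: 300 nL library stock went into each well; scaled to the means of positive and negative controls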
GIV-Gai inh: inhibitors of GIV peptide binding to Galpha-i3, primary screen, biochemical, fluorescence polarization, FITC-GIV GBA peptide, rat Galphai3. Guanine nucleotide-binding protein G(i) subunit alpha-3 (Rattus norvegicus), P08753. 90 min; stronger effect = lower value; scaled: aluminum fluoride 0%, vehicle 100%. percent of control (FP), % (test concentration not listed). hit rate 0.42% among 210,000. AID 1224905, 2016;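 active = replicate mean at 85% of control or lower, very high polarization wells dropped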;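 note: wells of about 15 µL received 100 nL stock; the first replicate is given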
Target sequence (P08753 whole entry, looked up): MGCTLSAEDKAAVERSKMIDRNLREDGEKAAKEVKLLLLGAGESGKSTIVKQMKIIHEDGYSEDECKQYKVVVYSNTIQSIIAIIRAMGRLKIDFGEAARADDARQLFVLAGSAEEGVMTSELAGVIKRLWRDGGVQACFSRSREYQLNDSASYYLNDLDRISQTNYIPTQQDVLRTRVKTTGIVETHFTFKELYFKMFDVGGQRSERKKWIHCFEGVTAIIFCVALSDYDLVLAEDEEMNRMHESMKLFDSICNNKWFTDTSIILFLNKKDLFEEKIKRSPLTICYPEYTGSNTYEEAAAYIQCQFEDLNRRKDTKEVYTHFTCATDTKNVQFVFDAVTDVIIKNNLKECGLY
Sa growth inh second temp: recorded beside Sa growth inh, whose call it bears; relative growth, %; measured here: growth at 30 °C;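 optical density after 20 h as mean of two plates; 100% = untreated growth and lower means inhibition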
An asterisk follows results filed as active; x = not tested or not shown; & = joins results of further samples.

| item | molecule | HCMV NEC inh | Sa growth inh | Sa growth inh second temp | GIV-Gai inh |
| --- | --- | --- | --- | --- | --- |
| 1 | CS(=O)(=O)NC12CC3CC(CC(C3)C1)C2 | -5 | 106 | 99 | 97 |
| 2 | Fc1ccc(NC(=S)N2CCc3ccccc32)cc1 | x | 127 | 85 | 106 |
| 3 | Cn1c(=O)cc(OCC(=O)N2CCC(Cc3ccccc3)CC2)c2ccccc21 | -30 | x | x | 105 |
| 4 | O=C(NCc1ccco1)C1CCCN1S(=O)(=O)c1ccc2ccccc2c1 (stereo not given) | -20 | 94 | 87 | x |
| 5 | COc1ccc(NS(=O)(=O)c2ccc3c(c2)n(C)c(=O)c(=O)n3C)cc1Cl | -2 | 86 | 84 | 102 |
| 6 | CCOC(=O)c1c(C)oc2nc(C)nc(NCc3ccccc3Cl)c12 | x | 102 | 90 | 103 |
| 7 | CCOC(=O)CCc1c(C)nc2nc(CNc3cc(Cl)ccc3OC)[nH]n2c1=O | -7 | x | x | 109 |
| 8 | CC(=O)N1c2ccc(S(=O)(=O)N3CCC(C(=O)NCCC4=CCCCC4)CC3)cc2CC1C (stereo not given) | -27 | 93 | 86 | 103 |
| 9 | Cc1cc(=O)oc2c1c(C)nn2CN1CCN(C)CC1 | -40 | 91 | 76 | 103 |
| 10 | CCOC(=O)c1c(C)[nH]c(C(=O)Cn2nnc(-c3ccccc3)n2)c1C | -2 | 94 | 94 | x |
| 11 | COc1ccccc1Cn1c(=O)c2ccccc2n2c(SCC(=O)N3CCOCC3)nnc12 | -11 | 77 | 96 | x |
| 12 | O=C(NCc1ccccc1)c1cccnc1 | -17 | 69 | 93 | x |
| 13 | CCCCn1ccnc1C(=O)c1cc(F)c(F)c(F)c1F | -24 | 115 | 78 | x |
| 14 | O=C(NC(=S)Nc1ccccc1O)c1ccccc1 | 2 | 105 | 87 | x |
| 15 | CCc1ccc2c(CC(=O)Nc3ccc(N4CCOCC4)cc3)coc2c1 | -28 | 88 | 84 | x |
| 16 | Cn1c(NC(=O)c2cccs2)c(-c2cccs2)c(=O)c2ccccc21 | -2 | 91 | 86 | 109 |
| 17 | O=C(NC1CC1)c1ccccc1NS(=O)(=O)c1ccc(F)cc1 | 16 | 92 | 103 | x |
| 18 | O=C(NC1CCCC1)c1ccccc1-c1nc(-c2ccc(Cl)cc2)no1 | -6 | 99 | 96 | 107 |
| 19 | Cc1cc(NS(=O)(=O)c2ccc(NC(=O)c3cc(-c4ccc(C)o4)nc4ccccc34)cc2)nc(C)n1 | -11 | x | x | 107 |
| 20 | CCN(CC)C(=S)NC(=O)c1ccccc1 | 0 | 97 | 75 | x |
| 21 | COc1ccc(N2CCN(C(=O)COc3ccccc3-c3nnc(-c4ccccc4)o3)CC2)cc1 | 1 | 105 | 91 | 101 |
| 22 | Cc1cc(C)cc(-n2nnc(C(=O)OCc3ccc(F)cc3)c2C)c1 | -25 | x | x | 102 |
| 23 | COc1ccc(OCC(=O)NC2CC(=O)N(c3cccc(OC)c3)C2)cc1 (stereo not given) | x | 99 | 94 | 99 |
| 24 | Cc1ccc(O)c(C2=Nc3ccccc3N=C(c3ccc(F)cc3)C2)c1 | -11 | x | x | 93 |
| 25 | CC(C)Cn1cnc2c1c(=O)[nH]c(=O)n2CC(C)C | -6 | 84 | 89 | x |
| 26 | CCN=C1S/C(=C\c2ccc(O)c(OCC)c2)C(=O)N1CC | -46 | 77 | 74 | 105 |
| 27 | O=C(c1cccc(F)c1)N1CC(OCc2ccc(F)cc2Cl)C1 | -28 | x | x | 98 |
| 28 | O=C1OC(N2CCCC2)c2ccccc21 (stereo not given) | 3 | 84 | 74 | 102 |
| 29 | CCCSc1nc2c(c(=O)[nH]1)C(c1ccc(OC)c(OC)c1)C(C(=O)OC)=C(C)N2 (stereo not given) | -32 | x | x | 98 |
| 30 | C/C(=N\OCc1nc2c3cnn(Cc4ccccc4)c3ncn2n1)c1ccccc1 | -31 | 89 | 80 | 102 |

Single values from the results shown:
entry 29 – HCMV NEC inh = -32
entry 16 – Sa growth inh = 91

The list continues.
| item | molecule | HCMV NEC inh | Sa growth inh | Sa growth inh second temp | GIV-Gai inh |
| --- | --- | --- | --- | --- | --- |
| 31 | Cc1ccsc1C(=O)Nc1ccccc1N1CCOCC1 | -12 | 90 | 85 | x |
| 32 | CCOc1ccc(N2C(=O)NC(=O)/C(=C/c3ccc(OC)c([N+](=O)[O-])c3)C2=O)cc1 | -11 | x | x | 103 |
| 33 | CC(C)c1ccc(NC(=O)CSC2=Nc3ccccc3C3=NC(CC(=O)NCc4ccco4)C(=O)N23)cc1 (stereo not given) | x | 94 | 86 | 97 |
| 34 | Fc1ccc(-c2cc3ncc4c(n3n2)-c2cc(F)ccc2OC4)cc1 | -17 | x | x | 99 |
| 35 | Cc1ccc2cc(-c3noc(CCC(N)=O)n3)c(=O)[nH]c2c1 | -47 | x | x | 103 |
| 36 | C=C(C)CSc1nnc(CNC(=O)OC(C)(C)C)n1-c1ccccc1 | 10 | 101 | 106 | 102 |
| 37 | O=C(NCCC(c1ccccc1)c1ccccc1)c1cc2ccccc2c(=O)o1 | -18 | 95 | 101 | x |
| 38 | CC1CCN(CC(C)OC(=O)c2ccc3c(c2)OCCO3)CC1 (stereo not given) | 3 | 88 | 82 | 102 |
| 39 | CCOC(=O)c1cc(S(=O)(=O)NCc2ccc(C)cc2)[nH]n1 | x | 101 | 98 | 107 |
| 40 | Cc1ccc(NC(=O)c2ccco2)c(N)c1 | 4 | 104 | 92 | x |
| 41 | O=C(Oc1ccc(C2=NCCS2)cc1)c1ccccc1Cl | -12 | 90 | 87 | 104 |
| 42 | CCc1ccc(NC(=O)c2cnn3c2NC2=C(C(=O)CC(C)(C)C2)C3c2ccc(C)cc2)cc1 (stereo not given) | -8 | x | x | 100 |
| 43 | O=C(Cc1ccc(F)cc1)Nc1nnc(-c2ccc(F)cc2)o1 | -29 | 76 | 67 | 102 |
| 44 | Cc1nc(-c2cnccn2)sc1C(=O)N1CCN(C)CC1 | -59 | 96 | 86 | 104 |
| 45 | CN(CC(=O)Nc1cccnc1)S(=O)(=O)c1cccc2cccnc12 | x | 87 | 88 | 99 |
| 46 | Cc1ccc(OCCOn2nnc3ccc(S(=O)(=O)N(C)C)cc32)cc1 | -19 | 82 | 87 | x |
| 47 | CCOC(=O)c1sc(NC(=O)Nc2ccc(F)cc2)nc1C | 19 | 103 | 86 | x |
| 48 | O=C(NCCc1ccc(Cl)cc1)c1ccc(CS(=O)(=O)c2ccc(Cl)cc2)o1 | x | 91 | 86 | 103 |
| 49 | COC(=O)Nc1ccc(SC(F)(F)C(F)(F)C(F)(F)F)cc1 | -4 | 83 | 96 | x |
| 50 | CN(C)C(=O)/C(=C\c1ccccc1)NC(=O)c1ccccc1 | x | 108 | 92 | 104 |
| 51 | O=C(CN1CCCC1c1ccc2c(c1)OCCO2)NC(=O)Nc1ccccc1F (stereo not given) | -32 | 117 | 86 | x |
| 52 | CC1(C(=O)NC2CCCCC2)Cc2ccccc2C(=O)N1CCN1CCOCC1 (stereo not given) | -22 | x | x | 104 |
| 53 | CC(C)NC(=O)C1CCCN(c2ccnc(-c3ccc(F)cc3)n2)C1 (stereo not given) | -29 | x | x | 105 |
| 54 | COC(=O)COc1cc(O)c2c(=O)cc(-c3ccccc3)oc2c1 | -1 | x | x | 95 |
| 55 | COc1cccc(S(=O)(=O)Nc2ccc(C(=O)N3CCCCCC3)cc2)c1 | -5 | 94 | 97 | 106 |
| 56 | Cc1ccc(CC(C#N)Sc2nnc(-c3ccccc3F)o2)cc1 (stereo not given) | -27 | 83 | 87 | x |
| 57 | Cc1ccccc1OCc1nnc(N)s1 | -10 | 95 | 82 | x |
| 58 | O=S(=O)(Cc1ccc(Cl)cc1)NCc1cccnc1 | 1 | 101 | 108 | 103 |
| 59 | O=C(NCC1CCCO1)c1cc2c(=O)[nH]c3ccccc3c2s1 (stereo not given) | x | 108 | 90 | 111 |
| 60 | O=C(Oc1cc(=O)oc2ccccc12)c1ccc2c(c1)OCCO2 | -16 | x | x | 108 |

The final four compounds of the part before open the next one.
Every second line gives: HCMV NEC inh | Sa growth inh | Sa growth inh second temp | GIV-Gai inh
57	Cc1ccccc1OCc1nnc(N)s1
 : -10 | 95 | 82 | x
58	O=S(=O)(Cc1ccc(Cl)cc1)NCc1cccnc1
 : 1 | 101 | 108 | 103
59	O=C(NCC1CCCO1)c1cc2c(=O)[nH]c3ccccc3c2s1 (stereo not given)
 : x | 108 | 90 | 111
60	O=C(Oc1cc(=O)oc2ccccc12)c1ccc2c(c1)OCCO2
 : -16 | x | x | 108
61	Cc1cc(C)c(Cn2cnc3onc(C)c3c2=O)c(C)c1
 : -4 | x | x | 105
62	CCOC(=O)C1CCCN(c2nc3nc[nH]c(=O)c3s2)C1 (stereo not given)
 : -23 | x | x | 103
63	CS/C(=C/C(=O)c1ccco1)Nc1ccccc1Cl
 : -13 | 64 | 63 | 102
64	CC1=C(C(N)=O)C(c2ccccc2C)n2ncnc2N1 (stereo not given)
 : -26 | x | x | 103
65	CCOC(=O)c1ccc(NC(=O)CC2C(=O)N(c3ccccc3)C(=O)N2Cc2cccs2)cc1 (stereo not given)
 : -7 | 98 | 58 | 104
66	CCOC(=O)c1ccc(NC(=O)C2CCCN(c3cnccn3)C2)cc1 (stereo not given)
 : -30 | 84 | 89 | 99
67	N#Cc1nc(COc2ccc(Cl)cc2)oc1NCc1ccco1
 : -5 | 92 | 82 | 105
68	O=C(CSc1ccc(F)cc1)NC(=O)C1CCCCC1
 : -23 | 98 | 90 | x
69	CCc1ccc(NC(=O)C2CCN(c3cc(C)nc4c(-c5ccc(Cl)cc5)c(C)nn34)CC2)cc1
 : -28 | 100 | 87 | 105
70	COc1cc(NC(=O)c2nnn(CC(=O)Nc3ccccc3)c2N)cc(OC)c1
 : x | 80 | 72 | 109
71	CC1Cc2nc(SCC(=O)N3CCCCC3)n(Cc3ccccc3)c(=O)c2S1 (stereo not given)
 : -1 | 90 | 86 | 104
72	N#C/C(=C\c1ccc(O)c(O)c1)C(=O)NCCc1ccccc1
 : -76 | x | x | 124
73	Cc1ccc(-c2nc3cc(N=Cc4ccccc4O)ccc3o2)cc1
 : -23 | 86 | 104 | 95
74	COc1ccccc1NC(=O)N1CCCSC1=NC1CCCCC1
 : -20 | 72 | 91 | x
75	Cc1ccc(/C=C2\SC(=O)N(CCNC(=O)c3ccc(OCc4c(C)noc4C)cc3)C2=O)cc1
 : -8 | 65 | 95 | x
76	Cc1c(-c2cccc(NC(=O)C(C)(C)Oc3ccc(Cl)cc3)c2)nc2ncccn12
 : x | 80 | 55 | 102
77	O=C(CCn1ccc2cc(S(=O)(=O)N3CCCC3)ccc21)NCc1ccccc1
 : -34 | 116 | 90 | 99
78	O=C(CSC1=Nc2ccccc2N=C(c2ccc(F)cc2)C1)Nc1cccc(C(F)(F)F)c1
 : x | 70 | 92 | 104
79	COc1ccccc1N1CCN(S(=O)(=O)c2ccc(-c3cnc(C4CC4)o3)cc2)CC1
 : x | 133 | 104 | 104
80	Cn1nc(-c2ccccc2)c(-c2ccccc2)c(C(=O)Nc2ccc(S(N)(=O)=O)cc2)c1=O
 : -20 | 92 | 84 | 103
81	COC(=O)C1=C(C)C(c2ccc(OC)cc2)NC(=O)N1 (stereo not given)
 : -11 | 99 | 92 | x
82	COc1ccc2oc(C(=O)OCc3cc(=O)n4c(C)csc4n3)c(C)c2c1
 : 4 | 98 | 86 | x
83	Cc1ccc(C(O)(C(=O)NN2CCOCC2)c2ccc(C)cc2)cc1
 : x | 107 | 93 | 103
84	COc1ccc(-c2[nH]ncc2C(=O)NCc2ccc(F)cc2)cc1
 : -15 | 110 | 90 | 102
85	CCOC(=O)c1cnc(SCC(=O)Nc2ccc(C)c(Cl)c2)nc1N
 : -18 | x | x | 106
86	Cc1ccc(S(=O)(=O)NCCOc2nc(NC(C)C)nc(NC(C)C)n2)cc1
 : -24 | x | x | 101
87	CNC(=O)c1cc2n(n1)CCCN(Cc1ccc(Cl)cc1)C2=O
 : -7 | x | x | 101
88	COc1ccc(C2C3=C(CC(C)(C)CC3=O)Nc3[nH]c(=O)[nH]c(=O)c32)cc1 (stereo not given)
 : -2 | 87 | 90 | x
89	CCc1ccc(-c2cn3c4ccccc4nc3n2CCO)cc1
 : -12 | 70 | 66 | 102
90	O=c1cc(O)c2sc3nc4c(cc3c2[nH]1)CCCC4
 : -35 | 71 | 90 | 103
91	O=C(COc1ccc(Cl)cc1)Nc1ccc(S(=O)(=O)Nc2nccs2)cc1
 : -14 | x | x | 99
92	COc1ccc(Br)cc1S(=O)(=O)NC(=O)/C=C/c1ccccc1Cc1ccc2ccccc2c1
 : -22&-38 | x | x | 102
93	Cc1cccc(N(C)S(=O)(=O)c2ccc3c(c2)CCN3C(=O)C2CC2)c1
 : x | 97 | 81 | 99
94	Cn1nnc2c(N3CCN(c4ccccc4Cl)CC3)ncnc21
 : x | 110 | 94 | 96
95	Cc1ccc(-c2nc(S(=O)(=O)c3ccccc3)c(N3CCN(c4ccccc4)CC3)o2)cc1
 : 13 | 87 | 98 | 99
96	Cc1ccc(/C=C/c2onc(C)c2S(=O)(=O)N2CCC(C(=O)Nc3ccc(C)c(N(C)C)c3)CC2)cc1
 : x | 124 | 107 | 106
97	CCc1nn(CC(=O)NCCOC)c(=O)c2cc3cc(F)ccc3n12
 : -47 | 124 | 92 | 102
98	CN(C)S(=O)(=O)c1ccc2c(c1)N(CC(=O)Nc1ccc(OC(F)(F)F)cc1)C(=O)CS2
 : x | 92 | 90 | 102

Random draw from the library. About 0.85% of those tested had a hit in this group.
